# Bioassay records from PubChem.
# HSD17B inhib – blocks hydroxysteroid 17-beta dehydrogenase activity | Q99714 | actives 7.6% (n = 75,000) | Potency, µM (highest dose often 57.1 µM), inactives show top-dose activity change, negative = inhibition, actives largely listed as inhibitors | recombinant HSD17B10, NADH fluorescence kinetic; many of its hits are not listed in these tables; active means well fitted inhibition curve with a large enough effect; inconclusive means small, poorly fitted or top-dose-only effect; inactive means no such curve, though single readings can be large or run the other way;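 further: the protocol describes HADH2 (HSD17B10) and not the HSD17B4 of the title; nearly all actives have a fitted effect of over 70% in size; most hits overshoot -100% by far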
#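 His-tagged E. coli-expressed HADH2 at 20 nM in 100 mM Tris-HCl pH 9.0 with 0.01 % Tween-20, preincubated 15 min with compound at room temperature. Reaction with 1 mM NAD+ and 90 uM beta-hydroxybutyryl coenzyme A; NADH fluorescence (360/450 nm) read kinetically over 4 min, last minus first point.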
# * = called active by the depositor; u = inconclusive; & = joins results of further samples; [ ] = remark or other dose. On the % scale 0 is the no-effect control and ±100 the full control effect; potency means the concentration at half of the fitted maximal effect. Only part of the results is shown; rates above refer to the full screens.
SMILES,HSD17B inhib
Nc1ncnc2c1ncn2[C@@H]1O[C@@H](COP(=O)(O)CP(=O)(O)OP(=O)(O)O)[C@H](O)[C@@H]1O,4%
O=S1OCC2C(CO1)C1(Cl)C(Cl)=C(Cl)C2(Cl)C1(Cl)Cl (stereo unspecified),-4%
CCN1C[C@]2(C)CC[C@H](O)[C@@]34C5C[C@@H]6[C@@H](OC)C[C@@](O)(C5[C@H]6O)[C@@H](CC23)[C@@H]14 (stereo partly specified),1%
O[C@H](CN1CC1)[C@@H](O)CN1CC1,9%[11.4 µM]
CCCn1nc2ccccc2c1P(=O)(N1CCOCC1)N1CCOCC1,11%
C/C=C(/C)C(=O)OC1CC[C@]2(C)C3CCC4[C@]5(O)CC(O)[C@]6(O)C(CN7CC(C)CCC7[C@]6(C)O)[C@]5(O)C[C@@]42O[C@]13O (stereo partly specified),-2%
Nc1ccc(CCN2CCN(c3cccc(C(F)(F)F)c3)CC2)cc1,-6%
COC(=O)NC(=S)Nc1ccccc1NC(=S)NC(=O)OC,u
CSc1ccc(C(=O)C(C)(C)N2CCOCC2)cc1,0%
O=C1C=C2C=CC3C[C@@]2(O1)C1CCCCN31 (stereo partly specified),-6%
O=C(C1c2ccccc2C(=O)N2CCc3ccccc3C12)N1CCC2(CC1)OCCO2 (stereo unspecified),0%
CC(C)NS(=O)(=O)c1ccc(OCC(=O)N2CCN(Cc3ccccc3)CC2)c(Cl)c1,16%
Clc1ccc(C2=CCC[C@H]3CC[C@@H]2N3)cn1,u
Cc1ncc([N+](=O)[O-])n1CCN=[N+]=[N-],-4%[11.4 µM]
O=c1c2ccccc2nc(CN2CCOCC2)n1-c1ccccc1F,-2%
Cc1nc2ccccc2n1C1CCN(Cc2nnnn2CCc2ccccc2)CC1,0%
Cc1cc(C)n(CCOC(=O)C2C(C=C(Cl)Cl)C2(C)C)n1 (stereo unspecified),1%
N[C@H](Cn1ccc(=O)[nH]c1=O)C(=O)O,-6%
CCC(=Nc1ccc(OC)cc1OC)c1c(O)[nH]c(=O)[nH]c1=O,0%
O=C(c1ccccc1)c1cn(CC(=O)N2CCCC2)c2ccccc12,-9%
O=C(COc1ccccc1)N1CCN(C2CCCC2)CC1,8%
CCCCCCN=C(C)c1c(O)n(CCCC)c(=O)[nH]c1=O,9%
CCC(=NCCCN(CC)CC)c1c(O)n(C2CCCCC2)c(=O)[nH]c1=O,-10%
O=C(Nc1cccc(Cl)c1)c1c(O)c2c(n(Cc3ccco3)c1=O)CCCC2,-1%
C[C@H](CN(C)C)C(C#N)(c1ccccc1)c1ccccc1,6%[11.4 µM]
CC12CC(c3ccccc3O1)C(C(=O)OCc1ccccc1)C(=O)N2 (stereo unspecified),5%
CN(C)CCCc1c[nH]c2ccccc12,12%[11.4 µM]
CCCCP(=O)(O)CCC(=O)O,-4%
O=c1cccc2n1CC1CC2CN(Cc2c(F)cccc2Cl)C1 (stereo unspecified),-4%
Cc1ccc(CN2CCN(CC(=O)N3CCC4(CC3)OCCO4)C2=O)cc1,6%
CN1CCN(c2ccc(NC(=O)C(C)(C)C)cc2)CC1,-2%
Nc1ccc(Oc2ccc(N)cc2)cc1,-1%
COP(=S)(OC)SCN1C(=O)c2ccccc2C1=O,-10%
CC1(C)Cc2c(sc3c2C(=O)NC(c2cccnc2)N3)CO1 (stereo unspecified),u
COc1cc2c(cc1OC)[C@@H]1C(=O)c3ccc(OC)c(CC=C(C)C)c3OC1CO2 (stereo partly specified),u
COc1ccc2nc(NC(=O)CCc3nc(C4=CCN(C)CC4)no3)sc2c1,3%
O=c1[nH]c(=O)n(C2CCCCCC2)c(O)c1C=NC1CCN(Cc2ccccc2)CC1,-2%
COc1ccc(OCC(=O)N2CCN(CC3CC4C=CC3C4)CC2)cc1 (stereo unspecified),8%
C[C@H](N)Cc1c[nH]c2ccc(OCc3cccs3)cc12,-10%&8%
C=CCn1c(O)c(C(C)=NCc2cccnc2)c(=O)[nH]c1=O,1%
C=CCN1CC[C@@]23c4c5ccc(O)c4O[C@H]2/C(=N\N=C2/CC[C@@]4(O)[C@H]6Cc7ccc(O)c8c7[C@@]4(CCN6CC=C)[C@@H]2O8)CC[C@]3(O)[C@@H]1C5,-13%&-15%
C=C(Cl)CCl,2%
CC1(C)C(C(=O)NCc2ccco2)C1(C)C,-11%
O=C(CCC(=O)N1CCC2(CC1)OCCO2)Nc1nnc(C(F)(F)F)s1,-1%
CCC(C)C(=O)c1c(O)c(C)c2oc3c(C)c(O)c(C(=O)C(C)CC)c(O)c3c2c1O (stereo unspecified),-15%
COc1ccccc1N1CCN(Cc2cccc(OC)c2O)CC1,1%
O=P(C(c1ccc2c(c1)OCO2)N1CCOCC1)(N1CCOCC1)N1CCOCC1 (stereo unspecified),2%
CCOC(=O)C1CCN(C(C)C(=O)c2c(C)[nH]c3cc(C)ccc23)CC1 (stereo unspecified),3%
C[C@]12N[C@@H](Cc3ccccc31)c1ccccc12,-1%
N=c1sc2c(n1Cc1ccccc1)CCCC2,8%
O=C1CN=C(c2ccccc2)c2oc3ccc(Br)cc3c2N1,12%
C[C@]12CCC(=O)C=C1CC[C@@H]1[C@@H]2CC[C@]2(C)C(=O)CC[C@@H]12,2%&5%
NC(=O)C1(N2CCCCC2)CCN(Cc2ccccc2)CC1,5%
NC[C@H](CS(=O)(=O)O)c1ccc(Cl)cc1,-11%
Cc1nonc1-c1nc(-c2nonc2N)n[nH]1,13%
CNCCc1ccc(O)c(O)c1,25µM*
CCCCOC(=O)C1=C(N)OC2=C(C(=O)CCC2)[C@]12C(=O)N(C)c1ccccc12,-6%
Cc1cc(OCc2nn[nH]n2)c2c3c(c(=O)oc2c1)CCCC3,32µM*
CCN1CCN(c2ncnc3ccc(Br)cc23)CC1,3%
C=CP(=O)(O)c1ccccc1,4%

# Continued.
SMILES,HSD17B inhib
O=C(CCl)c1ccc(Cl)cc1Cl,-2%
CC(=NCCO)c1c(O)n(C2CCCCC2)c(=O)[nH]c1=O,6%
ClCC1CO1 (stereo unspecified),2%
C=CCn1c(O)c(C(C)=Nc2ccc(NC(C)=O)cc2)c(=O)[nH]c1=O,-4%
O=C(Cc1ccccc1)OCCN1CCCCC1,1%
COc1cc2c(cc1OC)-c1c(OC)c(OC)cc3c1C(C2)N(C)CC3 (stereo unspecified),u
O=C(O)/C=C\c1ccc[c]([Sb](=[O])([OH])[OH])c1,0.79µM*
CCCN(CCC)[C@@H]1CCc2cccc(O)c2C1,-4%&-13%&-4%&4%
C=C[C@@H]1C[C@@]1(C)[C@@H](NP(=O)(c1ccccc1)c1ccccc1)c1ccccc1,-9%
CCCOc1ccccc1C1SCC(=O)Nc2c1c(=O)[nH]n2C(C)CCC (stereo unspecified),-1%
C=C[C@H]1CN2CC[C@H]1C[C@H]2c1[nH]c2ccccc2c1CCO,13%
CC1(C)N(O)C2CCCCC2N1O (stereo unspecified),5%
C[C@@]12CC(=O)[C@H]3[C@@H](CCC4=CC(=O)CC[C@]43C)[C@H]1CCC2=O,-4%[25.6 µM]
[O-][n+]1onc2c1CCC1N(O)CCC21O (stereo unspecified),-2%
c1cc(CN2CC3(CCNCC3)C2)ccn1,9%
CN1[C@@H]2CC[C@H]1CC(O[C@@H](c1ccccc1)c1ccccc1N)C2 (stereo partly specified),-3%
C=CCn1c(O)c(C(C)=NCCCO)c(=O)[nH]c1=O,15%
CC(C)CN1CCC2(CC1)CCN(S(C)(=O)=O)CC2,1%
N=C(N)n1cc(/C=N\N=C(N)N)cn1,5%[11.4 µM]
C[C@H](N)Cc1c[nH]c2ccc(O)cc12,-9%&4%
O=C(Nc1cccc(F)c1)N1CCC2(CC1)CCN(C(=O)Oc1ccccc1)CC2,-14%
COC1=C[C@H]2[C@H]3Cc4ccc(OC)c(O)c4[C@@]2(CCN3C)CC1=O,2%
O=C(CN1C(=O)CN=C(c2ccccc2)c2ccccc21)NCc1ccco1,u
C[N+]1(C)CCc2cc3c(cc2[C@@H]1[C@@H]1OC(=O)c2c1ccc1c2OCO1)OCO3,5%
Cc1ccc2c(c1)CC1(CN2C)C(=O)NC(=O)N(c2ccc(C)c(C)c2)C1=O (stereo unspecified),-5%
CN1C(=O)C(C2c3ccccc3C(=O)N2Cc2ccccc2)C(=O)N(C)C1=O (stereo unspecified),-2%
OCC1CCCN2CCCCC12 (stereo unspecified),5%
COc1cccc(-n2nc(C(=O)N3CCC4(CC3)OCCO4)c3ccccc3c2=O)c1,0%
CCNC(=O)[C@@H]1O[C@@H](n2cnc3c(N)ncnc32)[C@H](O)[C@H]1O,-3%
CN=C(SCc1cc2c(cc1Cl)OCO2)c1c(O)n(C)c(=O)n(C)c1=O,3%

# Reprinted from above for reference:
SMILES,HSD17B inhib
OCC1CCCN2CCCCC12 (stereo unspecified),5%
COc1cccc(-n2nc(C(=O)N3CCC4(CC3)OCCO4)c3ccccc3c2=O)c1,0%
CCNC(=O)[C@@H]1O[C@@H](n2cnc3c(N)ncnc32)[C@H](O)[C@H]1O,-3%
CN=C(SCc1cc2c(cc1Cl)OCO2)c1c(O)n(C)c(=O)n(C)c1=O,3%

# Next results follow.
SMILES | HSD17B inhib
CCCCn1c(O)c(C(C)=NCCCN(CC)CC)c(=O)[nH]c1=O | 11%
Nc1c(C(=O)Nc2ccc([As](=O)(O)O)cc2)cnc2nnnn12 | 7%[11.4 µM]
Cc1cccc(NC(=O)N[C@@H]2N=C(c3ccccc3)c3ccccc3N(CC(=O)c3ccccc3C)C2=O)c1 | -1%
O=c1[nH]c(=O)n(Cc2ccc(F)cc2)c(O)c1C=NCc1cccnc1 | -4%
COc1ccc(C2Oc3c(I)c(OC)cc(OC)c3CC2O)cc1OC (stereo unspecified) | 6%
CCC(=Nc1ccc2c(c1)CCC2)c1c(O)n(C2CCCCC2)c(=O)[nH]c1=O | 0%
CCOc1ccccc1C1SCC(=O)Nc2c1c(=O)[nH]n2C(CC)CC (stereo unspecified) | 2%
Cc1oc(-c2ccccc2F)nc1CS(=O)CC(=O)N1CCC2(CC1)OCCO2 (stereo unspecified) | -12%
O=C(c1cc(S(=O)(=O)N2CCOCC2)ccc1F)N1CCC2(CC1)OCCO2 | 5%
COc1ccc2c(c1)CC1(CN2C)C(=O)NC(=O)N(CCc2ccccc2)C1=O (stereo unspecified) | u
NC(N)=NOCC[C@H](N)C(=O)O | 1%
CCCCCCCCCCCOC(=O)c1ccccc1C(=O)OCCCCCCCCCCC | 2%
CCN(CC)c1ncnc2c1ncn2[C@@H]1O[C@@H](COP(=O)(O)OP(=O)(O)C(Br)(Br)P(=O)(O)O)[C@H](O)[C@@H]1O | 5%
Cc1ccc2c(c1)N(CCC(=O)N1CCC3(CC1)OCCO3)C(=O)CO2 | -1%
Nc1cc(Cl)ccc1O | u
CCC(=O)c1cn(Cc2ccccc2C#N)c2ccccc12 | -8%
CSC(=Nc1ccccc1)c1c(O)n(C)c(=O)n(C)c1=O | -7%
C=C[C@]12CN(C)[C@H]3C1[C@@]1(C(=O)Nc4ccccc41)[C@H]1C[C@H]2[C@H]3CO1 | 1%[25.6 µM]
O=c1[nH]cnc2[nH]cc(CN3CCCCC3)c12 | -6%[11.4 µM]
CCOC(=O)N(c1ccccc1)P1(=S)OCC(C)O1 (stereo unspecified) | 1%
Cn1c(O)c(C=NCCOc2ccc(Cl)cc2)c(=O)n(C)c1=O | 4%
ClC(Cl)(Cl)C(Cl)(Cl)Cl | -4%
CCOC(=O)Cc1c(C)c2c(C)[nH]nc2oc1=O | 20µM*
Cc1cccc(-n2c(-c3ccco3)nc3ccccc3c2=O)n1 | -10%
Oc1ccc2c3c1O[C@@H]1c4[nH]c5c(c4C[C@@]4(O)[C@@H](C2)N(CC2CC2)CC[C@]314)C[C@]1(O)[C@@H]2Cc3ccc(O)c4c3[C@@]1(CCN2CC1CC1)[C@H]5O4 | -9%
O[C@@H](Cc1ccncc1)C(Cl)(Cl)Cl | 0%
CCOC(OCC)P(=O)(O)CCCN | -3%
CN(C)CP(=O)(O)CN(C)C=O | 7%
Clc1ccc(C(c2ccccc2Cl)C(Cl)(Cl)Cl)cc1 (stereo unspecified) | -2%
S=C(c1ccc(Cl)cc1)N1CCOCC1 | -12%
CCOC(=O)c1[nH]c(C)c(C(=O)N2CCC3(CC2)OCCO3)c1C | 1%
Nc1c(Cl)cc([N+](=O)[O-])cc1Cl | 3%
CC1(C)C(=O)C=C[C@@]2(C)C1=C(O)C(=O)[C@@]1(C)C2CC[C@@]2(C)C(c3ccoc3)C[C@H]3O[C@@]321 (stereo partly specified) | -3%
Cc1ccc(NC(=[OH+])c2cc3ccccc3cc2O)c(C)c1.Cc1ccc(NC(=[OH+])c2cc3ccccc3cc2O)c(C)c1.[Ni] | u
FC(F)(F)c1cccc(N2CCNCC2)c1 | -10%
O=C(O)c1cc(N=Nc2ccc([As](=O)(O)O)cc2)ccc1O | -3%[11.4 µM]
CCOC(=O)C(C)Oc1cc(C)cc2oc(=O)c3c(c12)CCCC3 (stereo unspecified) | 25µM*
O=[N+]([O-])c1ccc(O[C@H]2O[C@@H](CO)[C@@H](O)[C@@H](O)[C@@H]2F)c([N+](=O)[O-])c1 | -6%
Clc1ccc(C(c2ccc(Cl)cc2)C(Cl)(Cl)Cl)cc1 | 11%

# An excerpt from above in order of molar mass, highest first.
SMILES | HSD17B inhib
Oc1ccc2c3c1O[C@@H]1c4[nH]c5c(c4C[C@@]4(O)[C@@H](C2)N(CC2CC2)CC[C@]314)C[C@]1(O)[C@@H]2Cc3ccc(O)c4c3[C@@]1(CCN2CC1CC1)[C@H]5O4 | -9%
CC1(C)C(=O)C=C[C@@]2(C)C1=C(O)C(=O)[C@@]1(C)C2CC[C@@]2(C)C(c3ccoc3)C[C@H]3O[C@@]321 (stereo partly specified) | -3%
O[C@@H](Cc1ccncc1)C(Cl)(Cl)Cl | 0%
